StopGo RLuc: FMDV 2A StopGo reporter, Renilla signal. HEK cells with a luciferase reporter of 2A StopGo recoding. Potency, µM (titrated, usually from 57.5 µM), without a hit: top-dose signal change, negative = less light. 120,000 compounds, 0.32% hits; active means well fitted falling curve with a large enough effect; inconclusive means small, poorly fitted or top-dose-only effect; inactive means no such curve, though single readings can be large or run the other way; further: nearly all actives have a fitted effect of over 55% in size; overnight with compound
2A firefly: FMDV 2A StopGo reporter, firefly signal | HEK cells with a luciferase reporter of 2A StopGo recoding | Potency, µM (doses to about 57.5 µM), without a hit: at the highest dose signal change, negative = less light | 120,000 compounds, 0.23% hits | AID 1745856; active = well fitted falling curve with a large enough effect; inconclusive = small, poorly fitted or top-dose-only effect; inactive = no such curve, though single readings can be large or run the other way; further: nearly all actives have a fitted effect of over 60% in size; overnight with compound
* = called active by the depositor; ? = inconclusive; & = joins results of further samples; [ ] = another dose, or the depositor's remark. On the % scale 0 is the no-effect control and ±100 the full control effect; potency means the concentration at half of the fitted maximal effect. A portion of the library; the hit share may differ from the screen's.

molecule	StopGo RLuc	2A firefly
Cc1nc(SCc2cn3cccc(C)c3n2)c2ccccc2n1	16.4%	0.0%
CCCC(CCC)C(=O)Nc1cccc(-c2nc3cccnc3s2)c1	-18.1%	-21.4%
CS(=O)(=O)Nc1ccccc1CNC(=O)C1CCC1	-2.6%	1.6%
Cc1cc(C)n(Cc2cc(C(=O)O)c3ccccc3n2)n1	-3.0%	5.0%
COc1cccc(NC(=O)CN2C(=O)COc3ccc(S(=O)(=O)N4CCOCC4)cc32)c1	-5.4%	-14.8%
COc1ccc2cc(C(=O)NCC3(N(C)C)CCCCCC3)[nH]c2c1	-24.2%	14.6%
O=C(Nc1ccc(S(=O)(=O)N2CCC(c3nc4ccccc4s3)CC2)cc1)c1ccccc1	-10.7%	-9.7%
CN(CC(=O)NCc1ccc(Cl)cc1)S(=O)(=O)c1ccc2c(c1)c(=O)n(C)c(=O)n2C	-6.8%	-12.4%

molecule	StopGo RLuc	2A firefly
Cc1ccc(NC(=O)CSc2n[nH]c(=O)c3cc(-c4ccco4)nn23)c(Br)c1	15.4%	32.2%[activator]
COc1ccc(-n2c(SCC(=O)N3CCc4ccccc43)nc3c([nH]c4ccccc43)c2=O)cc1	-0.3%	12.2%
COc1cc(F)c(S(=O)(=O)Nc2c(C)n(C)n(-c3ccccc3)c2=O)cc1OC	0.0%	-16.3%
Cc1ncc([N+](=O)[O-])n1CCO	3.1%	-1.9%[11.5 µM]
CCCn1nc(C(=O)Nc2ccc(Cl)cc2)c2ccccc2c1=O	12.6%	50.8%[activator]
Cc1ccc(C(=O)O)cc1NC(=O)c1cccc(C(=O)Nc2cc(C(=O)O)ccc2C)c1	-7.5%	-4.1%
COc1ccc(CNC(=O)c2ccc3nc(CCc4ccccc4)oc3c2)cc1OC	?	?
Cn1c(=O)c2c(ncn2CC(=O)OCC(=O)NCc2ccccc2)n(C)c1=O	-3.8%	-5.8%

molecule	StopGo RLuc	2A firefly
CCN1CCN(c2ccc(NC(=O)c3ccc(OC)c(F)c3)cc2C)CC1	-11.1%	69.2%[activator]
COc1cc(Cl)c(NCC(=O)NC(C)(C#N)C(C)C)cc1OC (centres undefined)	-3.1%	3.1%
CC(CCCCCCCCCCCCCO)(C(=O)O)C(=O)O	16.0%	0.0%
O=C(NCC(c1ccc2c(c1)OCO2)N1CCOCC1)C(=O)Nc1ccccc1 (centres undefined)	-5.7%	10.6%
CC(=O)N1CCCc2ccc(NS(=O)(=O)c3ccc(F)cc3F)cc21	-9.4%	14.4%
COc1cccc(NC(=O)CSc2nc3ccccc3c(=O)n2-c2ncn[nH]2)c1	-0.5%	9.3%
Fc1ccc(-n2ncc3c(Nc4ccc5c(c4)OCCO5)ncnc32)cc1	12.4%	130.2%[activator]
CN(C)C=NC(=O)c1cc2c(n(-c3ccccc3)c1=O)CC(C)(C)CC2=O	-6.3%	-0.3%

molecule	StopGo RLuc	2A firefly
CCOC(=O)c1ccc(N2C(=O)c3[nH]nc(-c4ccccc4)c3C2c2ccc(CC)cc2)cc1 (centres undefined)	?	?
COc1ccccc1-c1noc(-c2ccc(N3CCC(C)CC3)c([N+](=O)[O-])c2)n1	37.3%	168.6%[activator]
S=C(Cc1ccccc1)SC/C=C/c1ccccc1	-5.6%	18.7%
CSc1ccc(CNC(=O)c2cc3c(s2)CCCC3)cc1	0.0%	187.9%[activator]
C[C@@H]1C[C@H]2[C@@H]3CCC4=CC(=O)C=C[C@]4(C)[C@@]3(F)[C@@H](O)C[C@]2(C)[C@@]1(O)C(=O)COC(=O)c1ccncc1	8.1%	-4.1%
Cc1ccc(S(=O)(=O)n2nc(-c3ccc(Cl)cc3)nc2NCc2ccc(F)cc2)cc1	3.8%	-5.5%
COc1cccc(CNC(=O)C(=O)NCC(c2ccc3c(c2)OCO3)N2CCOCC2)c1 (centres undefined)	-20.1%	11.3%
CNC(=O)c1cccc(CNC(=O)C2CCCC2)c1	-3.2%	23.5%

molecule	StopGo RLuc	2A firefly
O=C(c1ccc2c(c1)N(Cc1ccccc1)C(=O)c1ccccc1S2=O)N1CCOCC1 (centres undefined)	53.8%[activator]	9.5%
CCC1CCCCN1C(=O)C1CC1 (centres undefined)	7.5%	22.8%
N#CC(C(=O)/C=C/c1ccccc1)c1ccc(C(F)(F)F)cn1 (centres undefined)	20.5%	91.4%[activator]
O=C(Cn1nc(C(=O)O)c2ccccc2c1=O)NC1CCCCCC1	-6.2%	-7.7%
c1ccc2c(c1)ncc1nncn12	-10.5%	-5.2%
Cc1ccc(C(CNC(=O)c2cc3ccccc3oc2=O)N2CCCC2)o1 (centres undefined)	-16.9%	-8.4%
O=C(Nc1ccccc1Cl)c1ccc(F)c(S(=O)(=O)NCc2ccc(Cl)c(Cl)c2)c1	64.7%[activator]	0.0%
Cc1ccc(C)c(S(=O)(=O)c2nnn3c2nc(Nc2ccc(C)c(C)c2)c2ccccc23)c1	9.9%	1.1%

molecule	StopGo RLuc	2A firefly
O=C(NCc1ccccc1Br)c1ccc2c(c1)nc1n2CCOC1	-4.7%	-13.5%
C/C(=N\NC(=S)NCc1ccccc1)C1CC1	5.1%	-6.7%
O=C(COC(=O)c1c[nH]c2ccccc12)NC1CCCCC1	-1.5%	86.1%[activator]
COc1cc(S(=O)(=O)NCCc2c(C)[nH]c3ccc(C)cc23)ccc1Br	170.4%[activator]	9.6%
CC(C)c1nc2ccc(C(=O)NCc3ccc(N(C)C)cc3)cc2o1	-4.2%	-13.9%
Cc1ccsc1/C=C(/C#N)C(=O)c1ccccc1	0.8%	9.4%
Oc1ccccc1-c1nc(/C=C/c2ccccc2Cl)nn1-c1ccccc1	19.6%	191.4%[activator]
CCCOC(=O)Nc1ccccc1N=C1CCC/C1=C\c1ccccc1	14.7%	214.1%[activator]

molecule	StopGo RLuc	2A firefly
Cc1ccc(/C=C/C(=O)NCCc2c[nH]c3ccccc23)o1	-13.7%	8.5%
CCOC(=O)c1ccc(NC(=O)CSc2c(C(C)C)cnc3c2c(=O)n(C)c(=O)n3C)cc1	-16.1%	-5.1%
O=C(NCC(O)c1ccc(F)c(F)c1)Nc1cccc(Cl)c1Cl (centres undefined)	11.2%	26.2%
CCOC(=O)c1c(C)[nH]c(C)c1S(=O)(=O)N1CCCC(C(=O)N2CCN(c3cc(C)ccc3C)CC2)C1 (centres undefined)	-5.0%	-11.5%
COc1cc(Cl)c(NS(=O)(=O)c2ccc3c(c2)CC(C)N3C(=O)C2CCC2)c(OC)c1 (centres undefined)	-1.4%	?
O=S(=O)(NCC(c1ccco1)S(=O)(=O)c1ccccc1)c1ccccc1 (centres undefined)	304.5%[activator]	-9.5%
CC(C(N)=O)N1CC=C(c2c[nH]c3ccccc23)CC1 (centres undefined)	-4.2%	22.8%
O=C(CSc1nccnc1N1CCN(c2ccccc2)CC1)Nc1ccccc1Cl	-19.7%	-10.6%

Compounds listed so far with bromine, in the order listed:
molecule	StopGo RLuc	2A firefly
Cc1ccc(NC(=O)CSc2n[nH]c(=O)c3cc(-c4ccco4)nn23)c(Br)c1	15.4%	32.2%[activator]
O=C(NCc1ccccc1Br)c1ccc2c(c1)nc1n2CCOC1	-4.7%	-13.5%
COc1cc(S(=O)(=O)NCCc2c(C)[nH]c3ccc(C)cc23)ccc1Br	170.4%[activator]	9.6%

Other entries follow:
molecule	StopGo RLuc	2A firefly
Cc1ccc(NC(=O)c2nn(CC(C)C)c(=O)c3ccccc23)c(Br)c1	1.2%	2.4%
COCCc1ccc(OCC2CO2)cc1 (centres undefined)	-10.6%	-4.3%
CCOc1ccc(NC(=O)C2CC(=O)N(c3ccc(C(C)C)cc3)C2)cc1 (centres undefined)	5.8%	-0.9%
Cc1ccc(C)c(NC(=O)CN2CCN(C3CCCCC3)C(=O)C2=O)c1	-6.9%	-16.7%
CCS(=O)(=O)c1nc(S(=O)(=O)c2ccc(C)cc2)c(NCCCOC)s1	63.0%[activator]	-11.5%
CC(C)c1ccc(Cn2c(COc3ccccc3)nc3ccccc32)cc1	25.3%	161.4%[activator]
COc1ccc(C(CNC(=O)CCc2nnc(-c3ccccc3)o2)N(C)C)cc1 (centres undefined)	-5.4%	120.6%[activator]
C/C(CC(C)(C)C1CCCCC1)=N\N=C(N)N	?	?

molecule	StopGo RLuc	2A firefly
S=C(NCc1ccccc1)N/N=C/c1ccccn1	?	0.0%
CCOc1ccc(S(=O)(=O)N(CC(=O)Nc2ccc3c(c2)OCO3)c2ccccc2)cc1	-10.8%	-2.7%
COc1cc2c(c(OC)c1)C(c1cccc(F)c1F)CC(=O)N2 (centres undefined)	11.2%	5.5%
CCN1CCN(c2nc3ccccc3nc2C(C#N)S(=O)(=O)c2ccc(OC)cc2)CC1 (centres undefined)	233.8%[activator]	0.0%
CC1CCCN(c2c(S(=O)(=O)c3ccccc3)cnc3ccc(Cl)cc23)C1 (centres undefined)	-2.8%	0.0%
Cc1oc(-c2nc(C#N)c(NCc3cccnc3)o2)cc1S(=O)(=O)N(C)C	-1.2%	-2.6%
CCOc1cc(Cn2c(-c3ccc(O)c(OCC)c3)nc3ccccc32)ccc1O	5.1%	-24.3%
COC(=O)COC(=O)COc1ccccc1Cc1ccccc1	20.5%	19.2%

molecule	StopGo RLuc	2A firefly
O=C(COC(=O)c1cccc(-n2cccc2)c1)Nc1c(F)cccc1F	-9.6%	-3.8%
CCN(C(=O)c1cccs1)c1cccc(C)c1	6.6%	8.2%
Nc1ncc(S(=O)(=O)NCc2ccc(Cl)cc2)cn1	4.6%	-9.0%
COCC(C)n1c(C)cc(C(=O)COC(=O)Cn2cnc3c2c(=O)n(C)c(=O)n3C)c1C (centres undefined)	-1.2%	8.4%
C[N+](C)(C)CCOC(c1ccccc1)c1ccccc1	-2.9%	-8.6%
CC(=O)c1ccc(N2CCN(C3C(=O)c4ccccc4N3C(C)=O)CC2)cc1 (centres undefined)	-14.2%	-5.8%
CCc1nc(SC)ncc1C(=O)Nc1ccc(Cl)cc1C(=O)c1ccccc1	38.1%[activator]	-9.2%
Cc1ccc(-c2n[nH]c(=O)c3ccccc23)cc1S(=O)(=O)Nc1ccc(F)cc1	161.4%[activator]	16.5%

molecule	StopGo RLuc	2A firefly
Cc1ccc(NC(=O)c2oc3c(c2C)-c2[nH]ncc2CC3)c(Cl)c1	?	97.8%[activator]
CCc1nnc2c3ccccc3nc(Nc3ccccc3OC)n12	-16.7%	-16.1%
O=C(c1ccc2c(c1)N(Cc1ccccc1)C(=O)c1ccccc1S2(=O)=O)N1CCC(Cc2ccccc2)CC1	-21.4%	65.6%[activator]
Cc1cccc(-c2nc3n(CC(=O)N4CCC(C)CC4)c(C)cc(=O)n3n2)c1	4.7%	12.0%
Cc1cccc(N(C)S(=O)(=O)c2c(-c3cccc(F)c3)csc2C(=O)NCc2ccccn2)c1	113.5%[activator]	-6.0%
Cc1ccc(NC(=O)C(=O)NCC(c2cccnc2)N2CCN(c3ccccc3F)CC2)cc1Cl (centres undefined)	1.6%	-8.1%
Cc1cc(C)cc(NC(=O)c2ccc3c(c2)NC(=O)CS3)c1	6.9%	2.7%
O=C(Nc1c(N2CCCC2)c2ccccc2oc1=O)C1CC1	-4.2%	-3.5%

molecule	StopGo RLuc	2A firefly
Cc1ccc2nc(-c3cccnc3)c(Nc3ccc(C(C)C)cc3)n2c1	-3.3%	-15.7%
Cc1cc(C)cc(NS(=O)(=O)c2ccc(-c3cc(C)no3)s2)c1	135.9%[activator]	?
CSc1nnc2n(-c3cccc(C)c3)c(=O)c3c4c(sc3n12)CCCC4	-7.4%	1.1%
COc1cc(NC(=O)CSC2=Nc3ccccc3N=C(c3ccc(F)cc3)C2)cc(OC)c1	-0.3%&-4.4%	19.3%&0.0%
Cn1ccc2c(OCC(=O)Nc3ccc([N+](=O)[O-])cc3)cccc2c1=O	0.0%	44.0%[activator]
Cc1cc2c(cc1C)CSC(c1cccc([N+](=O)[O-])c1)SC2	-5.5%	0.0%
CC(C)CSc1nnc(SCC(=O)NCc2ccccc2)s1	-10.9%	-7.8%
COc1ccccc1N(CC(=O)NCCSCc1ccc(Cl)cc1)S(C)(=O)=O	-0.1%	1.0%
Cc1ccccc1Cn1c(NC(C)CCO)nc2c1c(=O)n(C)c(=O)n2C (centres undefined)	1.2%	3.2%
O=C(C1=C(Nc2ccc(N3CCCC3)c(Cl)c2)c2ccccc2S1(=O)=O)N1CCOCC1	0.0%	-6.0%
COc1ccc(Cn2ccc3nc(C)c(C(=O)Nc4cccc(SC)c4)cc3c2=O)cc1	5.9%	-9.0%

As a working copy, some entries already given:
molecule	StopGo RLuc	2A firefly
Cc1ccc2nc(-c3cccnc3)c(Nc3ccc(C(C)C)cc3)n2c1	-3.3%	-15.7%
Cc1cc(C)cc(NS(=O)(=O)c2ccc(-c3cc(C)no3)s2)c1	135.9%[activator]	?
CSc1nnc2n(-c3cccc(C)c3)c(=O)c3c4c(sc3n12)CCCC4	-7.4%	1.1%
COc1cc(NC(=O)CSC2=Nc3ccccc3N=C(c3ccc(F)cc3)C2)cc(OC)c1	-0.3%&-4.4%	19.3%&0.0%
Cn1ccc2c(OCC(=O)Nc3ccc([N+](=O)[O-])cc3)cccc2c1=O	0.0%	44.0%[activator]
Cc1cc2c(cc1C)CSC(c1cccc([N+](=O)[O-])c1)SC2	-5.5%	0.0%

Screening data (PubChem BioAssay)
